eIF4H inh: human eIF4H binding inhibitors, primary screen, translation initiation inhibitor project, biochemical, uHTS, fluorescence polarization. eIF4H fluorescence polarization binding assay. inhibition, % at 35 µM. hit rate 0.94% among 290,000;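 active means 50% or more with normal probe brightness, or confirmed in later tests; inconclusive means above 50% with abnormal brightness, or retests that disagree; inactive means below 50% or failed in later tests; about a fifth of its hits are not listed in these tables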;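 further: calls also rest on retests at 20 µM and on dose response follow-up; 0% = protein and probe with vehicle and 100% = probe without protein; strong numbers were not always called active; many hits fall short of the cut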
MT1-MMP act inh: blockers of MT1-MMP proenzyme processing, primary screen, HT1080 RFP-PRO-GFP cells, GFP/RFP fluorescence; Matrix metalloproteinase-14 (Homo sapiens), P50281; GFP/RFP ratio fluorescence, overnight; percent of plate control window, DMSO zero; GFP/RFP ratio change, % at 20 µM; hit rate 0.061% among 360,000; AID 651647, 2012;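 active means GFP/RFP ratio change of at least 30% with cell ATP level not reduced by more than half and red fluorescence within 50% of control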; further: strong numbers were not always called active
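Material: RFP-PRO-GFP reporter HT1080 cells. Dosing: single-point 20 µM compound, 1% DMSO. Controls: DMSO and RFP-L50D-GFP cell wells. Timing: cells overnight before dosing, compound overnight, 37 °C, 5% CO2. Measure: GFP/RFP fluorescence ratio.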
Rce1 inh: yeast Rce1p protease inhibitors, primary screen, biochemical, fluorescence, cell-free homogeneous; CAAX prenyl protease 2 (Saccharomyces cerevisiae (strain ATCC 204508 / S288c)), Q03530; yeast membranes, quenched prenylated peptide cleavage fluorescence; calls only; hit rate 0.27% among 290,000;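 active means fall in fluorescence gain of 50% or more versus controls, with final raw signal at or below 3038400; inconclusive means same 50% fall but final raw signal above 3038400; inactive means fall in fluorescence gain under 50%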;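 further: plate controls were neutral control wells for no effect and wells lacking membranes for full effect; tested at 10 µM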
Target sequence (Q03530 whole entry, looked up): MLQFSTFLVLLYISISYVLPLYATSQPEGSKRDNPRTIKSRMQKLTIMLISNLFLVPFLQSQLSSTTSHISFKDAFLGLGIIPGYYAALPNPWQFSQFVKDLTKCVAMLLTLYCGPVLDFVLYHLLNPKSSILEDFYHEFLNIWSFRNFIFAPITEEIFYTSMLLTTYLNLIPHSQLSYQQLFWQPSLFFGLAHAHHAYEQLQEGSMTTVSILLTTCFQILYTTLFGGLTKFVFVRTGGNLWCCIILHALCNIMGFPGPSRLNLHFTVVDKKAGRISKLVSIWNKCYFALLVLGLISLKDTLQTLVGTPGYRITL
CSC inhib: cancer stem cell viability inhibitors, primary screen, luminescence; inhibition, % at 7.5 µM; hit rate 1.1% among 300,000; cancer stem cell-like cells viability;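 active means mean at 75% or more and at least half the replicates too; inconclusive means mean and replicates disagree; tested in HMLE shEcad cells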;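 further: 0% = median of negative and 100% = median of positive control wells; the first replicate is given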
Env fusion inh: inhibitors of HIV-1 Env-driven cell-cell fusion, primary screen, HeLa-JRFL effector, CEM21 target cells, luciferase; hit rate 1.1% among 360,000; inhibition, % at 12.3 µM;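 active means mean replicate inhibition score of at least 50 and every replicate individually at or above 50; inconclusive means only one of the two criteria met; inactive means mean below 50 and not all replicates reaching 50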;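 further: 0% = plate neutral controls and 100% = maraviroc near 300 nM; one replicate is shown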
Yeast UUG start: modulators of yeast start codon fidelity, primary screen, whole organism, S. cerevisiae, single point, plate reader. hit rate 0.13% among 350,000. S. cerevisiae UUG-firefly luciferase reporter, luminescence/redox ratio. activity score, % at 18.7 µM. AID 602363, 2012;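 active means replicate mean at a twofold rise or more, about +100% in these data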;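 further: firefly luciferase made from a UUG start codon reports start codon fidelity; reporter light over untreated wells divided by growth signal over untreated wells; some hits fall short of that in this replicate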
PABP polyA inh: PABP poly(A) RNA binding inhibitors, primary screen, biochemical, fluorescence polarization, uHTS. Polyadenylate-binding protein 1 (Homo sapiens), P11940. inhibition, % at 35 µM. hit rate 1% among 290,000;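 active means 50% or more with normal probe brightness, or confirmed in later tests; inconclusive means above 50% with abnormal brightness, or retests that disagree; inactive means below 50% or failed in later tests; about a fifth of its hits are not listed in these tables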;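 further: calls also rest on retests at 20 µM and on dose response follow-up; controls were probe without protein and protein plus probe with vehicle; some compounds called inactive have numbers as strong as hits; many hits fall short of the cut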
Target sequence (P11940 whole entry, looked up): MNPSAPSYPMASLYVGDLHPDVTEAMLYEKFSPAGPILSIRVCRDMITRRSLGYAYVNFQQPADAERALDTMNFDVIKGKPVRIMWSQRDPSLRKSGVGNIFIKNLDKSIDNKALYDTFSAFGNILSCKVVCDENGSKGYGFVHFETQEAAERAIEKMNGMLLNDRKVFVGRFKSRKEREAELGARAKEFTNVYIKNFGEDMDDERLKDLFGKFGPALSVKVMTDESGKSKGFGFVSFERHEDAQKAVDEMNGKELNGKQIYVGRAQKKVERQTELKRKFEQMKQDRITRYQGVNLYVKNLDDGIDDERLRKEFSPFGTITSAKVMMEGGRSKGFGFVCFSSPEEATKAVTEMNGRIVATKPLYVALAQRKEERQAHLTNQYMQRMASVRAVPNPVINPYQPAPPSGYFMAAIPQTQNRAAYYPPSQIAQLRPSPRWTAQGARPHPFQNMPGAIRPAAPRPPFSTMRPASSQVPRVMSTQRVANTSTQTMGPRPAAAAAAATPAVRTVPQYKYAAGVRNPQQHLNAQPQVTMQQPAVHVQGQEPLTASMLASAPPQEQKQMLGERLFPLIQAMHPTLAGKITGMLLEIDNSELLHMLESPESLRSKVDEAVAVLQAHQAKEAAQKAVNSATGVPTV
eIF4H inh retest: recorded beside eIF4H inh, whose call it bears; inhibition, %; compound at 20 µM; confirmation average;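 mean of two retest wells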
PABP polyA inh retest: further read-out of PABP polyA inh, marked with its call; inhibition, %; compound at 20 µM; confirmation repeats;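 mean of two retest wells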
MT1-MMP act inh RFP: recorded beside MT1-MMP act inh, whose call it bears; RFP signal change, %; measured here: RFP expression control read;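 0 = vehicle wells; hits needed this value within 50% of zero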
An asterisk follows results filed as active; i = inactive; ? = inconclusive; · = not tested or not shown; & = joins results of further samples. A portion of the library (hit frequency here may not be typical).

SMILES | eIF4H inh | MT1-MMP act inh | MT1-MMP act inh RFP | Rce1 inh | CSC inhib | Env fusion inh | Yeast UUG start | PABP polyA inh | others
CCOC(=O)N1CCC(N2C(=O)c3cc(C(=O)NC4CCCCC4)ccc3C2O)CC1 (stereo not drawn) | -1 | -1 | 1 | i | 7 | -14 | -3 | 1
CNCc1ccccc1OCc1ccccc1F | -4 | 5 | 2 | i | 7 | -8 | -14 | 5
CN(Cc1nc(-c2ccncc2)no1)S(=O)(=O)c1ccc(Br)cc1 | -2 | -3 | -16 | i | 7 | · | -10 | 9
CCN(CC)S(=O)(=O)c1ccc(NN)nc1 | -2 | 2 | 3 | · | -3 | 11 | · | 0
Cc1c(-n2c(SC(C)C(=O)NC(N)=O)nc3ccccc3c2=O)c(=O)n(-c2ccccc2)n1C (stereo not drawn) | -10 | 1 | 4 | i | -17 | -14 | · | 12
COc1ccc(/C=C/C(=O)OCC(=O)Nc2cccc(C(C)=O)c2)cc1 | -6 | 2 | 5 | i | -4 | -15 | · | -5
CCn1c(CSc2nc3ccccc3s2)nnc1SCC(=O)NCC(=O)OC | 3 | -1 | 7 | i | -8 | -53 | -4 | 2
CCCCOCCCNC(=O)N[C@@H](CC(C)C)C(=O)O | 11 | 1 | 8 | i | 1 | -22 | -11 | 18
CCOC(=O)CC(=O)CSc1nc(C)cc(C)c1C#N | 24 | 2 | 5 | i | -3 | -47 | -16 | 15
Cn1nnnc1SCC(=O)Nc1nn(-c2ccccc2)nc1C(N)=O | -13 | -2 | 1 | i | 1 | -4 | -17 | 54 | eIF4H inh retest=35;PABP polyA inh retest=36
O=C(Nc1ccc2nc(-c3ccc(Br)o3)[nH]c2c1)c1cccs1 | 55 | 5 | -2 | i | 39 | · | -21 | 9 | eIF4H inh retest=31;PABP polyA inh retest=7
O=C(OCc1ccccc1)N(CCF)c1cn(Cc2ccccc2)c(=O)n(Cc2ccccc2)c1=O | · | 0 | -3 | · | · | 13 | -13 | ·
COc1cccc(CN2CCCN(S(=O)(=O)c3ccc(Br)cc3)CC2)c1 | -5 | 7 | 2 | i | -8 | · | -7 | -5
COc1ccc(C(=O)NCc2nnc(SCC(=O)NCc3ccco3)o2)cc1OC | 10 | 1 | 0 | i | -11 | -2 | -15 | 5
CC1CCN(C(=O)CCC(=O)Nc2nnc(C(F)(F)F)s2)CC1 | -7 | -2 | 3 | i | -5 | · | 3 | 2
CC(=O)c1ccc(Nc2nc(-c3cccnc3)cs2)cc1 | 9 | -2 | -8 | i | · | -117 | -5 | -8
Cc1ccc(S(=O)(=O)Nc2cc(C(F)(F)F)ccc2N2CCOCC2)cc1 | 4 | -5 | -11 | i | 36 | -4 | -26 | -3
COc1ccc(CNCCC(c2ccccc2)c2ccc3c(c2)OCO3)cc1 (stereo not drawn) | 2 | -9 | -18 | i | 23 | · | -7 | 0
Cc1ccc(-n2c(N)c(C(N)=O)sc2=S)cc1 | 7 | 1 | 2 | i | -9 | · | · | 13
CCNc1nc2nc3ccc(C)cn3c(=O)c2cc1C(=O)NCC1CCCO1 (stereo not drawn) | 5 | 1 | 7 | ? | -13 | -27 | · | -3
O=C(Nc1nnc(S(=O)(=O)N2CCOCC2)s1)c1ccccc1Br | -8 | 2 | -2 | i | 5 | -12 | -13 | 6
COC(=O)C1=C(C)NC(C)=C(C(=O)OC)C1C(=O)OC1CCCCC1=O (stereo not drawn) | -3 | 4&3 | 6&7 | i | · | 2 | -13 | -3
CCCC12CN3CC(C)(CN(C1)C3c1ccc3c(c1)OCO3)C2=O (stereo not drawn) | -10 | 7 | 0 | i | · | · | -17 | -6
COC1=C(Nc2ccccc2)C(=O)c2ccccc2C1=O | 0 | 16 | 6 | i | · | · | · | -8
O=C(NCc1ccccc1)c1n[nH]nc1-c1ccccc1O | -7 | 17 | -1 | i | -10 | 11 | · | 3
O=C(COC(=O)c1nc(Cl)ccc1Cl)c1ccc[nH]1 | · | -1 | 3 | i | -1 | -4 | -16 | ·
COc1ccc(C(=O)N2CCCC(Nc3ccc(F)c(F)c3)C2)c(OC)n1 (stereo not drawn) | 1 | -2 | -2 | i | -15 | 2 | 3 | 1
Cn1c(=O)c(C(=O)NNC(=O)c2ccccc2Cl)c(O)c2ccccc21 | 0 | 7 | 1 | i | 17 | -25 | 1 | 4
O=c1cc(-c2ccccc2)nc2nc(COc3ccccc3)[nH]n12 | -13 | 0 | 1 | i | -12 | · | -18 | -8
C=CCN1C(=O)C(CC(=O)Nc2ccccc2F)S/C1=N\c1nccs1 (stereo not drawn) | 0 | -1 | -1 | i | · | 23 | -19 | 4
O=[N+]([O-])c1ccccc1-c1cc(-c2ccccc2O)n[nH]1 | -14 | 5 | 1 | i | · | -105 | -3 | -2
NC(=O)NC(CC(=O)NCCc1ccc(S(N)(=O)=O)cc1)c1ccc(Cl)cc1 (stereo not drawn) | -3 | 0 | 2 | i | -2 | 14 | -8 | -10
CC(c1ccccc1)C1OCC(C[N+]2(C)CCCCC2)O1 (stereo not drawn) | -1 | 0 | 2 | i | -9 | -4 | · | -4
CC1CCCC(NC(=O)c2cccc(S(=O)(=O)NCc3ccccc3)c2)C1C (stereo not drawn) | · | 2 | -3 | · | · | 10 | -7 | ·
O=[N+]([O-])c1ccc(NCCNS(=O)(=O)c2ccccc2)cc1 | -3 | -3 | -1 | i | -6 | 1 | -15 | 10
Cc1ccc(S(=O)(=O)CC(=O)N2CC(C)OC(C)C2)cc1 (stereo not drawn) | -5 | -3 | 1 | i | -4 | 3 | -12 | 1
COc1ccc(S(=O)(=O)Nc2ccc(S(=O)(=O)N3CCCC3)cc2)cc1 | -8 | 2 | 5 | i | 6 | · | -22 | 2
CCc1nc2c(OCC(=O)C(C)(C)C)cccn2c1N(C)C(=O)c1ccccc1F | · | -5 | 1 | · | · | -7 | -3 | ·
O=C(Nc1nc(-c2ccc(-c3ccccc3)cc2)cs1)c1cnccn1 | 6 | 8 | -2 | i | 8 | -13 | · | -7
Cc1cccc(CC2CC(=O)N(C3CCCCC3)C2=O)c1 (stereo not drawn) | 7 | -7 | -3 | i | -2 | · | · | -11
C/C(CC1CC(COCCC(C)C)OC1=O)=N\NC(N)=S (stereo not drawn) | -15 | 0 | 5 | i | 0 | -71 | -6 | -5
C/C(Cn1nnc2ccccc21)=N/OC(=O)c1c(F)cccc1F | 2 | 0 | -1 | i | -1 | 1 | -26 | -7
Cc1nccn1C[C@@H]1CCc2c(c3ccccc3n2C)C1=O | 0 | 1 | 6 | i | 5 | · | -22 | -7
COc1ccccc1C(=O)Nc1nc2nc(-c3ccccc3)cc(=O)n2[nH]1 | -2 | 0 | 2 | i | -6 | · | · | 31
S=c1[nH]nc(-c2ccc(Cl)cc2)n1/N=C/c1cccs1 | -7 | 5 | 2 | i | 14 | 0 | -9 | 11
CCOc1c2ccccc2nn1CCOC | · | 5 | 5 | · | -8 | 11 | -17 | ·
COc1ccc([C@H]2N[C@]3(CCCN(Cc4ccc(C(F)(F)F)cc4)C3=O)[C@H]3C(=O)N(Cc4ccccc4)C(=O)[C@@H]23)cc1 | · | 4 | -7 | · | · | -49 | -7 | ·
CCN(C(=O)COC(=O)c1cc(-c2cccc3ccccc23)nc2ccccc12)C1CCS(=O)(=O)C1 (stereo not drawn) | ? | -5 | 4 | i | 4 | · | · | -8
CCOc1ccc(C2CC(c3ccccc3C)n3ncnc3N2)cc1 (stereo not drawn) | 1 | 1 | 2 | i | -3 | 13 | -14 | -4
Cc1nnc(NC(=O)c2ccccc2NC(=O)c2ccccc2)s1 | 2 | 0 | -2 | i | 10 | -39 | -10 | -3
CC(C)(C)OC(=O)C[C@H]1C/C=C\C[C@H](CC(=O)N[C@H](CO)Cc2ccccc2)C(=O)N[C@H](Cc2ccccc2)COC1=O | · | 2 | 1 | · | -18 | · | -4 | ·
N#CCc1ccc(OC(=O)c2cnccc2C(F)(F)F)cc1 | -4 | 3 | 2 | i | · | -12 | -15 | 4
CCC(=O)Nc1ccc(C(=O)Nc2cccnc2)cc1 | 52* | 4 | -3 | i | 5 | · | -12 | 98*
Cc1cc(C)nc(Nc2ncc(O)n2-c2ccc(Br)cc2)n1 | 4 | 0 | -3 | i | 14 | 6 | · | -6
COC(=O)c1cc(=O)cc(C(=O)OC)o1 | -1 | 0 | 2 | i | · | -24 | -19 | -10
CCC(=O)Nc1c(C(=O)Nc2cccc(OC)c2)oc2ccccc12 | 2 | 7 | 0 | i | 8 | -203 | -9 | -4
Cc1ccc(Nc2nc3ccccc3s2)c(C)c1 | -2 | 0 | 0 | i | 19 | -124 | · | -6

Gathered by group: the compounds so far with fluorine
SMILES | eIF4H inh | MT1-MMP act inh | MT1-MMP act inh RFP | Rce1 inh | CSC inhib | Env fusion inh | Yeast UUG start | PABP polyA inh | others
CNCc1ccccc1OCc1ccccc1F | -4 | 5 | 2 | i | 7 | -8 | -14 | 5
O=C(OCc1ccccc1)N(CCF)c1cn(Cc2ccccc2)c(=O)n(Cc2ccccc2)c1=O | · | 0 | -3 | · | · | 13 | -13 | ·
CC1CCN(C(=O)CCC(=O)Nc2nnc(C(F)(F)F)s2)CC1 | -7 | -2 | 3 | i | -5 | · | 3 | 2
Cc1ccc(S(=O)(=O)Nc2cc(C(F)(F)F)ccc2N2CCOCC2)cc1 | 4 | -5 | -11 | i | 36 | -4 | -26 | -3
COc1ccc(C(=O)N2CCCC(Nc3ccc(F)c(F)c3)C2)c(OC)n1 (stereo not drawn) | 1 | -2 | -2 | i | -15 | 2 | 3 | 1
C=CCN1C(=O)C(CC(=O)Nc2ccccc2F)S/C1=N\c1nccs1 (stereo not drawn) | 0 | -1 | -1 | i | · | 23 | -19 | 4
CCc1nc2c(OCC(=O)C(C)(C)C)cccn2c1N(C)C(=O)c1ccccc1F | · | -5 | 1 | · | · | -7 | -3 | ·
C/C(Cn1nnc2ccccc21)=N/OC(=O)c1c(F)cccc1F | 2 | 0 | -1 | i | -1 | 1 | -26 | -7
COc1ccc([C@H]2N[C@]3(CCCN(Cc4ccc(C(F)(F)F)cc4)C3=O)[C@H]3C(=O)N(Cc4ccccc4)C(=O)[C@@H]23)cc1 | · | 4 | -7 | · | · | -49 | -7 | ·
N#CCc1ccc(OC(=O)c2cnccc2C(F)(F)F)cc1 | -4 | 3 | 2 | i | · | -12 | -15 | 4

Source: PubChem BioAssay
